# High-throughput results: PubChem, several laboratories
# ugtP null kill – growth inhibition of ugtP-null S. aureus, primary screen, RN4220 ugtP deletion, OD600; 16 h; some inactives read as strong as hits; growth inhibition, % (no concentration beside the values); 0.54% of 330,000 active; AID 1259309, 2017;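 active = z-score under -3 and OD600 up to 0.15 on both plates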;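 also: plate controls were untreated wells for no effect and antibiotic for full effect; wells of about 80 µL received 100 nL stock; the first replicate is given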
# Autofluor counter – flagged as autofluorescent in microsphere protease counterscreen | compound autofluorescence counterscreen, microsphere flow cytometry; active compounds read high | fluorescence intensity (concentration not given with the values) | 3.1% of 360,000 active;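 active = at least 3 SD above the mean of all compounds, about 16000 in these data; inconclusive = too few beads counted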;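 also: 100 nL of 1 mM stock went into each well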
# Mtb hypoxia inh – PubChem AID 1159583; 0.1% of 300,000 active; fluorescence inhibition, % (no concentration beside the values); M. tuberculosis hypoxia-regulated fluorescent reporter, fluorescence;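 active = 35 to 45% if threefold the growth effect, above 45% if 1.5-fold the growth effect; inactive = the rest, general growth blockers included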;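 also: wells of about 50 µL received 100 nL stock; 0% = vehicle wells and 100% = reference inhibitor wells; whole bacteria with a GFP reporter of the hypoxia response; strong numbers were not always called active; many hits fall short of the cut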
# PrP 5UTR inh – inhibition of PrP 5' UTR reporter expression. cell-based PrP 5' UTR mRNA reporter, plate reader. inhibition, % (no concentration beside the values). 0.35% of 340,000 active. AID 488862, 2010;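 active = every replicate at 50% or more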;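 also: 0 = median of the neutral control wells; tested in H4 reporter cells; numbers are from one replicate; inactives centre near -14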
# Sa RN4220 lethal – growth inhibition of S. aureus RN4220, primary screen, OD600. AID 1259311, 2017. inhibition, % (test concentration not listed). 0.33% of 330,000 active. 16 h;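 active = z-score of -3 or lower and OD600 up to 0.18 on both plates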;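 also: plate controls were untreated cells for no effect and reference antibiotic for full effect; stock transfer was 100 nL into about 80 µL; one replicate is shown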
# BJeLR lethal – MLPCN primary cell-based screen for lethality selective to Ras in HRASV12 cells; inhibition, % (test concentration not listed); AID 1554, 2009; BJeLR (HRASV12) viability, CellTiter-Glo ATP luminescence, 48 h; reference of the scale not given here; 0.17% of 300,000 active;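 active = replicate mean above 50%; inconclusive = above 50% but judged a plate artefact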;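 also: 50 nL library stock added to about 25 µL; numbers are from one replicate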
# Mtb hypoxia inh growth – second read-out of Mtb hypoxia inh, no call of its own (marks repeat the call); growth inhibition, %; measured here: M. tuberculosis growth (absorbance);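 0% = vehicle and 100% = reference antibiotic; read after six days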
# Active calls of the source: *; ? = inconclusive; . = not tested or not shown.
no. | SMILES | ugtP null kill | Autofluor counter | Mtb hypoxia inh | Mtb hypoxia inh growth
1 | CCCn1nnnc1SCC(=O)N1CCN(C(=O)c2ccco2)CC1 | 0 | 3778 | 3 | 5
2 | O=[N+]([O-])c1ccc(S(=O)(=O)NCC(c2ccco2)N2CCc3ccccc3C2)cc1 (stereo unspecified) | 6 | ? | 7 | 2
3 | Cc1ccc(C23CCC(=O)N2C(C(=O)O)CS3)c(C)c1 (stereo unspecified) | 3 | 3032 | -5 | -7
4 | Cc1ccc(C2NC(=O)NC(O)(C(F)(F)F)C2C(=O)c2cccs2)o1 (stereo unspecified) | 9 | 8211 | 2 | 5
5 | COC(=O)CCC(=O)Nc1sc(C)c(C)c1C(N)=O | -3 | ? | 2 | 9
6 | COC(=O)c1cc(CSc2nnc(NC3CCCCC3)s2)oc1C | 23 | 6988 | 10 | 11
7 | CC(C)(C)C(=O)Nc1nnc(COc2ccc(Cl)cc2)s1 | -7 | 4591 | 15 | 4
8 | CCCCn1c(N)c(N(CCOC)C(=O)COC(=O)c2ccccc2OCC)c(=O)[nH]c1=O | 4 | 4447 | 7 | 6
9 | O=C(O)c1ccc(C=Nn2c(C3CCCCC3)n[nH]c2=S)cc1 | 0 | . | 16 | 8
10 | Cc1nn(-c2ccccc2)c2c1C(c1ccc(Cl)cc1)N(c1ccccc1)C(=O)N2 (stereo unspecified) | -1 | 2597 | 6 | 7
11 | CC(=O)N/C(=C\c1ccc(F)cc1)C(=O)NC(Cc1ccccc1)C(=O)O (stereo unspecified) | -5 | 4501 | -2 | 0
12 | CC1(C)Oc2ccc3ccc(=O)oc3c2C(N2CCCCC2)C1O (stereo unspecified) | -5 | 9674 | -2 | 7

no. | PrP 5UTR inh | Sa RN4220 lethal | BJeLR lethal
1 | -29 | 0.9 | 4
2 | -28 | 6.4 | 16
3 | -14 | 3.4 | -4
4 | -1 | 2.6 | 4
5 | -3 | -7.6 | 9
6 | -13 | 4.7 | 6
7 | -27 | 3.5 | 8
8 | -4 | -0.6 | 1
9 | . | 0.5 | .
10 | -9 | -4.9 | -3
11 | -11 | 4.2 | 8
12 | -6 | 1.9 | 2

no. | SMILES | ugtP null kill | Autofluor counter | Mtb hypoxia inh | Mtb hypoxia inh growth
13 | COC1=C(Nc2ccc(OC)cc2)C(=O)c2ccccc2C1=O | 8 | 2049 | -10 | -7
14 | CCOC(=O)C(O)(NC(=O)c1cccnc1)C(F)(F)F (stereo unspecified) | 58 | 4264 | . | .
15 | Cc1ccc(C(=O)OC(C)C(=O)NC2CCCCC2C)cc1S(=O)(=O)N1CCOCC1 (stereo unspecified) | 8 | 5983 | 2 | 2
16 | CC(=O)N/C(=N/c1nc(C)cc(C)n1)Nc1ccc(C)cc1Cl | 9 | 3622 | -3 | 2
17 | CCC(C)(C)NC(=O)c1ccc2c(c1)N(CC(=O)OC)C(=O)C(C)(C)O2 | -1 | 16007 | 4 | 12
18 | O=C(c1ccco1)N1CCN(S(=O)(=O)c2ccc([N+](=O)[O-])cc2)CC1 | 3 | 3975 | 6 | 0
19 | CCC(C(=O)Nc1ncc(C)s1)c1ccccc1 (stereo unspecified) | 15 | 3363 | 2 | 10
20 | Cc1ccc(Nc2c(-c3ccc(N4CCOCC4)cc3)nc3ncccn23)c(C)c1 | 5 | 5751 | 4 | 7
21 | CCN(CC)CCN=Cc1c(O)n(CCc2ccccc2)c(=O)[nH]c1=O | 3 | . | 5 | 4
22 | CN1CCCCCC1=Nc1ccccc1C#N | -12 | 2396 | . | .
23 | O=[N+]([O-])c1cc(Br)c(O)c(C=Nc2ccc(N3CCOCC3)cc2)c1 | 7 | 4972 | 6 | -1
24 | Cc1nnc(SCC(=O)Nc2sc3c(c2C(=O)c2ccccc2)CCCC3)s1 | 1 | 11072 | -1 | 2

no. | PrP 5UTR inh | Sa RN4220 lethal | BJeLR lethal
13 | -90 | 29 | 15
14 | -20 | 84* | .
15 | -14 | 2.7 | -7
16 | -4 | 1.9 | 17
17 | -11 | -1.0 | 12
18 | 0 | 19 | 2
19 | -20 | -1.0 | 5
20 | 0 | 5.7 | 2
21 | -82 | -2.5 | 3
22 | -14 | 4.1 | 1
23 | -6 | 35 | -1
24 | -11 | 3.1 | 2

# Quoted at random: six entries already listed.
no. | SMILES | ugtP null kill | Autofluor counter | Mtb hypoxia inh | Mtb hypoxia inh growth
18 | O=C(c1ccco1)N1CCN(S(=O)(=O)c2ccc([N+](=O)[O-])cc2)CC1 | 3 | 3975 | 6 | 0
2 | O=[N+]([O-])c1ccc(S(=O)(=O)NCC(c2ccco2)N2CCc3ccccc3C2)cc1 (stereo unspecified) | 6 | ? | 7 | 2
14 | CCOC(=O)C(O)(NC(=O)c1cccnc1)C(F)(F)F (stereo unspecified) | 58 | 4264 | . | .
9 | O=C(O)c1ccc(C=Nn2c(C3CCCCC3)n[nH]c2=S)cc1 | 0 | . | 16 | 8
20 | Cc1ccc(Nc2c(-c3ccc(N4CCOCC4)cc3)nc3ncccn23)c(C)c1 | 5 | 5751 | 4 | 7
16 | CC(=O)N/C(=N/c1nc(C)cc(C)n1)Nc1ccc(C)cc1Cl | 9 | 3622 | -3 | 2

no. | PrP 5UTR inh | Sa RN4220 lethal | BJeLR lethal
18 | 0 | 19 | 2
2 | -28 | 6.4 | 16
14 | -20 | 84* | .
9 | . | 0.5 | .
20 | 0 | 5.7 | 2
16 | -4 | 1.9 | 17

# Additional records follow:
no. | SMILES | ugtP null kill | Autofluor counter | Mtb hypoxia inh | Mtb hypoxia inh growth
25 | Cc1cccc(C(=O)NCc2nnc(SCC(=O)NC(C)c3ccccc3)n2C)c1 (stereo unspecified) | 25 | 2044 | 0 | 3
26 | COc1ccccc1OCC(=O)Nc1nnc(-c2ccco2)s1 | . | 5350 | . | .
27 | O=C(NC1(C(F)(F)F)Oc2ccccc2O1)N1CCCC1 | 7 | 6945 | 2 | 3
28 | O=[N+]([O-])c1ccc(N2CCCC2)cc1NC(c1ccccc1)c1ccccc1 | 39 | 5105 | . | .
29 | CC(C)(C)c1cc(C(=O)N/N=C/c2ccc(F)cc2)n(-c2ccccc2)n1 | . | 10524 | . | .
30 | COc1cc(CNCCN(C)C)c(Br)cc1OC1CCCC1 | 8 | 4878 | 11 | 2
31 | Cc1ccc(S(=O)(=O)N2CCN(CC3CC4C=CC3C4)CC2)cc1 (stereo unspecified) | . | 4101 | . | .
32 | COc1ccc(NC(=O)CSc2ccc([N+](=O)[O-])cc2)cc1S(=O)(=O)N1CCOCC1 | 1 | 8636 | -9 | -1
33 | Cc1cc(NC(=O)c2ccc(S(=O)(=O)N3CCc4ccccc43)cc2)no1 | -4 | 2089 | -5 | 10
34 | CC(=NNC(=O)c1cc(-c2ccccc2C)nc2ccccc12)c1cccnc1 | -1 | . | 5 | 7
35 | CC(C)C(C(=O)NC(C)(C)C)N(CCN1CCOCC1)C(=O)CNS(=O)(=O)c1ccccc1 (stereo unspecified) | 0 | 3843 | -10 | -6
36 | COc1ccc(C2C(C#N)=C(N)N(N(C)C)C3=C2C(=O)CC(C)(C)C3)cc1OC (stereo unspecified) | 3 | 3878 | 14 | 4

no. | PrP 5UTR inh | Sa RN4220 lethal | BJeLR lethal
25 | 12 | 7.5 | -2
26 | -36 | . | -1
27 | -14 | 6.0 | -7
28 | -1 | -12 | 9
29 | -25 | . | -2
30 | -9 | 3.7 | 2
31 | -21 | . | -3
32 | -14 | 3.7 | .
33 | -4 | 6.7 | 7
34 | . | 7.0 | .
35 | -5 | 2.0 | -6
36 | -11 | 0.0 | 4

# Compound profiles (already shown):
# O=C(NC1(C(F)(F)F)Oc2ccccc2O1)N1CCCC1 is entered as ugtP null kill = 7; Autofluor counter = 6945; Mtb hypoxia inh = 2; Mtb hypoxia inh growth = 3; PrP 5UTR inh = -14; Sa RN4220 lethal = 6.0; BJeLR lethal = -7
# CC(C)(C)c1cc(C(=O)N/N=C/c2ccc(F)cc2)n(-c2ccccc2)n1 is entered as ugtP null kill = .; Autofluor counter = 10524; Mtb hypoxia inh = .; Mtb hypoxia inh growth = .; PrP 5UTR inh = -25; Sa RN4220 lethal = .; BJeLR lethal = -2

# Other records
no. | SMILES | ugtP null kill | Autofluor counter | Mtb hypoxia inh | Mtb hypoxia inh growth
37 | COc1ccc(NC(=O)COC(=O)c2c3c(nc4ccccc24)CCCC3)cc1Cl | -22 | 3043 | . | .
38 | COc1ccccc1C(C)NC(=O)c1ccccc1SCC(=O)N1CCCC1 (stereo unspecified) | 3 | 5296 | -12 | 2
39 | Cc1cc(=O)[nH]c(CN2CCC(c3ccccc3)CC2)n1 | 1 | 4622 | -11 | 12
40 | O=C(NCC1CCCO1)c1ccc(COc2ccccc2)cc1 (stereo unspecified) | -3 | 5428 | -2 | 5
41 | COc1ccc(/C=C/C(=O)C2C(=O)C=C(C)OC2=O)cc1O (stereo unspecified) | 1 | 2023 | 8 | 18
42 | CCn1ncc(Br)c1C(=O)Nc1cccc(F)c1 | 6 | 4408 | -2 | -3
43 | COc1cccc(NC(=O)CSc2nc3c(c(=O)n2C)SC(C)C3)c1 (stereo unspecified) | -14 | 5648 | -17 | -3
44 | CCN(CC(O)COCc1ccc(Cl)cc1)C1CCCCC1 (stereo unspecified) | -1 | 3391 | 6 | -1
45 | Cc1ccc(OCc2ccccc2Br)c([N+](=O)[O-])n1 | 14 | 5243 | 6 | 9
46 | CCc1ccccc1N(C(=O)c1ccco1)C(C(=O)NC1CCCC1)c1cccnc1 (stereo unspecified) | 1 | 3178 | -4 | 2
47 | CCOC(=O)N1CCN(Cc2nc3cc(NC(=O)c4cccs4)ccc3n2C)CC1 | -3 | 5597 | 5 | 11
48 | CCOC(=O)c1c(C)[nH]c(C(=O)COC(=O)CNC(=O)c2ccc(Cl)cc2)c1C | 3 | 2261 | 6 | 4

no. | PrP 5UTR inh | Sa RN4220 lethal | BJeLR lethal
37 | -11 | -2.7 | 4
38 | -11 | 2.4 | 8
39 | -21 | -1.9 | 3
40 | -21 | -1.4 | -2
41 | -54 | 2.6 | 22
42 | -6 | 3.3 | 2
43 | -26 | 1.5 | 0
44 | -14 | -3.8 | 4
45 | -14 | 9.9 | 8
46 | -23 | -5.0 | -7
47 | -10 | -1.5 | -1
48 | -5 | 3.3 | -2

no. | SMILES | ugtP null kill | Autofluor counter | Mtb hypoxia inh | Mtb hypoxia inh growth
49 | COc1ccc(C(=S)N2CCOCC2)cc1OC(=O)c1cc([N+](=O)[O-])c(C)c([N+](=O)[O-])c1 | 7 | 4740 | . | .
50 | O=C(CSc1ccc(Cl)cc1)N1N=CCC1c1ccccc1 (stereo unspecified) | 5 | 5219 | 22 | 5
51 | COCCCn1c(SCC(=O)Nc2cccc(C(=O)OC)c2)nnc1-c1ccncc1 | 7 | 4899 | 8 | 11
52 | C=CCNC(=O)c1csc(-c2ccccc2)n1 | -5 | 6063 | 10 | 12
53 | Cc1cc(C)c(S(=O)(=O)NCc2ccc3c(c2)OCO3)c(C)c1 | -1 | 4483 | 15 | -2
54 | COc1ccccc1Sc1nc(-c2ccccc2)ncc1OC | 37 | 4651 | 12 | 15
55 | COc1cc(CN2CCN(C(=O)c3cccc4ccccc34)CC2)cc(OC)c1OC | 4 | 3780 | 5 | -4
56 | CCOc1ccccc1NC(=O)C(=O)CC(=O)c1cccc(OC)c1 | 54 | 3902 | 0 | 9
57 | CC1(C)Cc2c(c(N3CCOCC3)nc3sc4c(NCCN5CCOCC5)nnnc4c23)CS1 | -6 | 5447 | 9 | -8

no. | PrP 5UTR inh | Sa RN4220 lethal | BJeLR lethal
49 | -5 | 0.9 | 3
50 | -25 | 4.9 | 2
51 | -16 | 2.3 | -6
52 | -26 | 6.5 | -9
53 | -51 | 7.3 | 8
54 | -25 | -2.5 | 12
55 | -11 | 3.8 | 7
56 | -4 | 34 | 0
57 | 0 | 16 | 15
